Bioassay records: PubChem BioAssay, several laboratories
FGF22 binding: binders of human FGF22 protein, primary screen, FGF22 synaptogenesis inhibitor project, biophysical, thermal shift, single point; recombinant FGF22 thermal shift, SYPRO orange fluorescence; percent of sucrose octasulfate shift, DMSO zero; calls only at 9.99 µM; AID 651658, 2012; actives 1.5% (n = 340,000); Fibroblast growth factor 22 (Homo sapiens), Q9HCT0;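 active means melting point raised past a set limit in the mean and every replicate; inconclusive means no clear call; three in four hits are not shown here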
Target sequence (Q9HCT0 whole entry, looked up): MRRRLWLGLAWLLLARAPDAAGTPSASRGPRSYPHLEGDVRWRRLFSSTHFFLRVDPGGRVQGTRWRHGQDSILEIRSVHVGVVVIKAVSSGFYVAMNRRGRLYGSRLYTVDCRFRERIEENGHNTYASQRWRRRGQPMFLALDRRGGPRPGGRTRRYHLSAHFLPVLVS
ALR inh: inhibitors of human ALR sulfhydryl oxidase, primary screen, biochemical, H2O2 detection, HRP-luminol luminescence, single point; FAD-linked sulfhydryl oxidase ALR (Homo sapiens), P55789; purified ALR, DTT oxidation; inhibition, % (concentration not given with the values); actives 3.8% (n = 290,000);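 active means mean and each replicate at 75% or more; inconclusive means only one of the two met; inactive means neither met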;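 further: stock transfer was 7.5 nL into about 7.5 µL; 0% = neutral wells and 100% = wells with inactivated enzyme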
Target sequence (P55789 whole entry, looked up): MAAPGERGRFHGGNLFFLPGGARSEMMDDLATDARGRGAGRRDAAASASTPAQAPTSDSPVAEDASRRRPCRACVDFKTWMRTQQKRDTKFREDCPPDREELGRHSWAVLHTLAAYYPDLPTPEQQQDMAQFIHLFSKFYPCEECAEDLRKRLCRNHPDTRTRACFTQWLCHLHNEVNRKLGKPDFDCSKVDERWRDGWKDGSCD
UCH37 inh: inhibitors of human UCH37 deubiquitinase, primary screen, biochemical, Ub-AMC cleavage, fluorescence. Ubiquitin carboxyl-terminal hydrolase isozyme L5 (Homo sapiens), Q9Y5K5. purified proteasome/UCH37. inhibition, % (no concentration beside the values). actives 0.33% (n = 330,000);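 active means mean of two replicates above 20%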;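 further: 0% = compound-free wells with enzyme and 100% = wells lacking proteasome; stock transfer was 100 nL into about 20 µL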
Target sequence (Q9Y5K5 whole entry, looked up): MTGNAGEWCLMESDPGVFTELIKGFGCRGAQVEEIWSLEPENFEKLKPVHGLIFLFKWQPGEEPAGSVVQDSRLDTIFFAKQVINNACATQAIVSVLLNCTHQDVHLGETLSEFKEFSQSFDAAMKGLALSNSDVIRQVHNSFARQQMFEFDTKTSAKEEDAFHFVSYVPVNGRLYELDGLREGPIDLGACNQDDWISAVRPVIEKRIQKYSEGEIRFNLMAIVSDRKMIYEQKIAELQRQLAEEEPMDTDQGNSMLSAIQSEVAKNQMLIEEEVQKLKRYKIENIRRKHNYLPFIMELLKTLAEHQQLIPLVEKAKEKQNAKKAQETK
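Material: human UCH37 enzyme supplied as purified proteasome complex. Measure: % inhibition of Ub-AMC cleavage fluorescence. Medium: pH 7.4 Tris-HCl (50 mM) with ovalbumin, ATP-MgCl2, DTT. Times: 30 min preincubation with enzyme, 25 min cleavage at room temperature. Detection: AMC fluorescence intensity at 355/460 nm.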
LANA-H2B inh: blockers of LANA interaction with H2A/H2B – biochemical, FP readout, HTS, primary screen. Protein LANA1 (Human herpesvirus 8 type P (isolate GK18)), Q9QR71. cell-free LANA-H2A/H2B peptide, fluorescence polarization. inhibition, % (test concentration not listed). actives 0.6% (n = 320,000). AID 2629, 2010; in the data active means inhibition mostly above about 10%, no sharp cut-off; inactive means mostly below about 6.7%;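 further: stock transfer was 7.5 nL into about 10 µL; 0% = median of vehicle wells and 100% = median of positive control wells; one replicate is shown; the record names a cut of 25% in any replicate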
HNF4A DNA FP: change in binding of human HNF4A to DNA, primary screen, biochemical, fluorescence polarization, FITC-DNA | Hepatocyte nuclear factor 4-alpha (Homo sapiens), P41235 | 1 h | activity change, % at 10 µM | actives 0.3% (n = 360,000); in the data active means activity change above about 30%, passing the limit was not always enough;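 further: controls were the assay level and a saturating level of protein; the project sought stronger binding though the title names inhibitors; some compounds called inactive have numbers as strong as hits; positive values seem to mean higher polarization but the record does not say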
Beta2AR agonist: beta2AR agonists driving receptor internalization, primary screen, cell-based, FAP fluorogen, flow cytometry | actives 0.43% (n = 340,000) | Am2.2-beta2AR cells; reference of the scale not given here | Beta-2 adrenergic receptor (Homo sapiens), P07550 | response, % (concentration not given with the values);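 active means response above a set limit, near 3 SD of response in nonfluorescent compounds, cut at about 42% in these data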;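 further: stock transfer was 100 nL into about 11 µL; a reference agonist was the positive control; negative values mostly stem from fluorescent compounds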
E coli growth: E. coli growth inhibition, primary screen, OD600 | Escherichia coli growth, 23 h; active compounds read low | OD600 absorbance (concentration not given with the values) | actives 0.21% (n = 330,000) | AID 1053175, 2014;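 active means OD600 absorbance below the run mean of sample wells minus 3.6 SD, in any replicate, cut at about 0.56 in these data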;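 further: stock transfer was 300 nL into about 60 µL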
* hit, by the source's call; i = inactive; ? = inconclusive; / = not tested or not shown. The list is partial, so the mix of outcomes need not match the whole.

SMILES	FGF22 binding	ALR inh	UCH37 inh	LANA-H2B inh	HNF4A DNA FP	Beta2AR agonist	E coli growth
CC(=O)N1CCN(c2ccc(S(C)(=O)=O)cc2[N+](=O)[O-])CC1	i	-15	5.0	-5.8	0.2	-5	0.7
Cc1[nH]c2ccccc2c1/C=C/C(=O)c1ccncc1	i	-10	6.9	-6.3	13	-6	0.64
N#Cc1c(N)sc2c1CCN(CCc1ccccc1)C2	/	0	-20	2.7	44	-20	0.69
c1ccc(C2c3[nH]c4ccccc4c3CCN2Cc2cccn2-c2cccnc2)nc1 (centres undefined)	/	-23	-2.1	3.7	-3.7	-3	0.68
CC(CN(C)Cc1ccccc1)OC(=O)c1ccc(F)cc1 (centres undefined)	i	-19	-0.5	-2.1	-0.5	3	0.68
COc1ccc(CNC(=O)CC(C)CC2=NS(=O)(=O)c3ccccc3N2)cc1 (centres undefined)	i	3	2.5	3.9	2.0	0	0.71
CC(C)(C)NC(=O)/C(=C\c1ccc(Br)cc1)NC(=O)c1cccs1	/	-6	1.4	7.1	-3.1	-5	0.71
COc1ccc(CCNC(=O)c2ccc(CS(=O)Cc3ccc(C)cc3)o2)cc1OC (centres undefined)	i	-7	-0.9	5.1	0.5	7	0.63
C=CCn1c(SCc2ccc(C(=O)O)cc2)nc2sc(C)c(C)c2c1=O	i	99*	8.7	2.0	-5.2	11	0.66
Cc1ccccc1OCC(=O)OCn1nnc2ccccc2c1=O	i	-1	6.3	0.5	4.3	-1	0.71
Cc1ccc(NC(=O)CCNS(=O)(=O)c2ccc3[nH]c(=O)oc3c2)cc1C	i	0	1.3	3.3	-6.7	5	0.67
c1cncc(CNc2ncnc3sccc23)c1	i	-3	-0.7	3.2	2.4	-3	0.63
O=C(NCc1ccc(Cl)cc1)C1CCCN(c2ncnc3c2nc2n3CCCCC2)C1 (centres undefined)	i	0	2.3	6.2	1.9	-3	0.71
CNC(=O)c1cc(S(=O)(=O)N(C)C)ccc1Cl	/	-19	3.5	-9.3	-2.6	6	0.66
CCCc1ccc(C(=O)Cn2nc(C(=O)O)c3ccccc3c2=O)cc1	/	/	5.6	-5.1	-4.0	0	0.71
CSc1nc2ncncc2[nH]1	i	/	0.5	/	1.7	0	0.66
CSc1nc(N2CCN(C)CC2)c2c(c1C#N)CC(C)(C)OC2	i	-5	3.8	-0.3	-0.9	-1	0.66
CC(C)C(Nc1ncnc2c1oc1ccccc12)C(=O)O (centres undefined)	i	21	0.3	-2.7	-0.7	-5	0.69
CC1c2cc3c(cc2CCN1C(=O)c1ccc(Br)cc1)OCCCO3 (centres undefined)	i	0	0.8	-3.9	2.1	-1	0.69
CCOc1ccc(-c2noc(CCCC(=O)NC3CCCCC3)n2)cc1OC	i	/	1.1	0.8	0.7	3	0.7
CCOC(=O)c1ccc(NC(=O)c2ccc3c(c2)C(=O)N(Cc2cccnc2)C3=O)cc1	i	-4	-5.9	-2.8	1.3	-1	0.71
CNc1nc(OCC#N)nc(N2CCCCC2)n1	i	-4	3.7	-0.2	-1.6	5	0.69
CCN(CC)CCCN(C(=O)c1ccc(OC)cc1)c1nc(-c2ccc(OC)cc2)cs1	i	/	2.2	0.7	0.1	13	0.67
C=CCn1c(-c2sc(-c3ccccc3)nc2C)n[nH]c1=S	i	9	-43	1.2	-1.1	10	0.72
CSc1nnc(C)c(/C=C/Nc2ccc(C)cc2)n1	/	3	2.3	5.9	53*	1	0.75
Cc1ccc(OCC(=O)Nc2ccc(S(=O)(=O)Nc3onc(C)c3C)cc2)cc1	/	/	0.1	-1.6	-4.3	4	0.68
COc1ccc(C(=O)Oc2cccc(/C=N/NC(N)=S)c2)cc1	i	/	/	-0.9	5.6	4	/
CN1CCN(NC(=O)c2cn(-c3ccccc3)nc2-c2ccc(OC(F)F)cc2)CC1	i	10	5.5	-2.4	0.6	-21	0.7
Cc1ccc(S(=O)(=O)N2CCOCC2)cc1C(=O)Nc1ccccc1N1CCCC1	i	47	1.3	3.8	4.9	-7	0.7
O=C1CCCN1CCCNc1ncnc2c1[nH]c1ccccc12	/	6	-28	-0.7	2.8	-2	0.69

3 of these compounds, set out differently:
> CN1CCN(NC(=O)c2cn(-c3ccccc3)nc2-c2ccc(OC(F)F)cc2)CC1
  FGF22 binding: i | ALR inh: 10 | UCH37 inh: 5.5 | LANA-H2B inh: -2.4 | HNF4A DNA FP: 0.6 | Beta2AR agonist: -21 | E coli growth: 0.7
> Cc1ccc(S(=O)(=O)N2CCOCC2)cc1C(=O)Nc1ccccc1N1CCCC1
  FGF22 binding: i | ALR inh: 47 | UCH37 inh: 1.3 | LANA-H2B inh: 3.8 | HNF4A DNA FP: 4.9 | Beta2AR agonist: -7 | E coli growth: 0.7
> O=C1CCCN1CCCNc1ncnc2c1[nH]c1ccccc12
  FGF22 binding: / | ALR inh: 6 | UCH37 inh: -28 | LANA-H2B inh: -0.7 | HNF4A DNA FP: 2.8 | Beta2AR agonist: -2 | E coli growth: 0.69

More compounds
SMILES	FGF22 binding	ALR inh	UCH37 inh	LANA-H2B inh	HNF4A DNA FP	Beta2AR agonist	E coli growth
NS(=O)(=O)c1ccc(N/C=C/C(=O)c2ccc(Br)cc2)cc1	i	-4	/	-1.4	2.0	-2	/
Cc1ccc2sc(-c3ccc(NC(=O)CCN4C(=O)c5ccccc5C4=O)cc3)nc2c1	i	/	-4.3	0.2	/	/	0.69
CCOc1ncccc1C(=O)Nc1cccc(-c2nnc3n2CCCCC3)c1	i	-24	2.4	0.8	0.0	1	0.71
CC1CCN(c2cc(N(C)CCO)c([N+](=O)[O-])c3nonc23)CC1	i	11	20	4.2	15	0	0.68
O=C(O)C1CCN(C(=O)c2ccccc2Cl)CC1	/	-2	4.6	-1.0	0.7	-3	0.72
Cc1ccc(N=Cc2cc(Cc3ccccc3Cl)cc([N+](=O)[O-])c2O)c(O)c1	/	-27	4.9	2.1	4.5	13	0.7
CN1C(=O)/C(=C\c2ccncc2)SC1=Nc1ccccc1	/	3	6.2	1.9	170	-3	0.68
COCCCNC(=O)CC(NS(=O)(=O)c1ccc(OC)cc1)c1ccc(OC)cc1 (centres undefined)	/	0	2.6	4.0	0.2	4	0.72
O=C(NNC(=S)NC(=O)c1ccccc1[N+](=O)[O-])c1ccccc1[N+](=O)[O-]	i	-2	6.7	-1.9	-5.2	0	0.54
CCc1cccc(C)c1NC(=O)COC(=O)CNS(=O)(=O)/C=C/c1ccccc1	/	-17	3.1	4.0	-3.5	-1	0.65
CCc1ccc(NC(=O)CN2C(=O)CC(C)S(=O)(=O)c3ccccc32)cc1 (centres undefined)	i	-3	2.3	6.7	-0.1	-3	0.66
Cc1ccc(S(=O)(=O)NC(=O)Nc2nccs2)cc1	i	-5	4.1	-1.3	-0.6	-4	0.67
N/C(=N\OC(=O)c1cc(Br)ccc1Cl)c1cccnc1	i	-1	0.5	2.1	-1.9	-10	/
O=C1Nc2c(c(=O)[nH]c(=O)n2-c2ccccc2F)C(C(F)(F)F)(C(F)(F)F)N1	/	/	0.2	0.1	3.9	-3	0.71
COC(=O)c1ccc(NC(=O)COC(=O)C2=NN(c3ccccc3)C(=O)CC2)cc1	i	/	0.2	1.4	2.3	2	0.67
COc1ccc(-c2nnc(Nc3nc4c(OC)cccc4s3)o2)c(OC)c1	/	5	-215	-5.1	-11	-2	0.67
CC(C)(C)OC(=O)N1CCN(c2ccc(NC(=O)Cn3nnc(-c4ccccc4)n3)cc2)CC1	/	-9	2.4	-0.9	1.0	-1	0.69
CN(C)CCCn1c2c(c(SCC(=O)Nc3ccc4c(c3)OCO4)nc1=O)CCCC2	/	?	3.4	-3.6	-0.3	-2	0.65
Cc1cccc(CNC(=O)C2CCC(=O)N(CCc3cccc(F)c3)C2)n1 (centres undefined)	i	/	-0.8	/	1.7	-3	0.68
COC(=O)c1ccc(NC(=O)CN2CCN(CCO)CC2)cc1	i	-2	/	0.1	-0.4	5	/
Cc1nc2ccc(NC(=O)NCCCO)cc2s1	/	-17	-1.2	4.8	1.1	-6	0.74
CC(=O)c1cccc(NC(=O)C(OC(=O)c2cccs2)c2ccccc2)c1 (centres undefined)	/	-5	-1.7	-2.4	3.4	-5	0.71
O=C(NN1C(=O)NC2(CCCCC2)C1=O)c1ccc(-c2ccc([N+](=O)[O-])cc2)o1	i	5	4.3	-3.0	1.9	7	0.67
CCc1cc(C(=O)Nc2cc(S(=O)(=O)N(CC)CC)ccc2N2CCN(C)CC2)sc1C	i	-16	1.2	5.3	8.1	-4	0.69
O=S(=O)(c1ccc(=S)[nH]c1)N1CCCCC1	i	?	3.1	-2.5	-0.4	-5	0.65
COCCCNC(=O)c1ccc2nc(Cc3ccc(OC)cc3)oc2c1	i	/	3.6	-2.7	-4.1	-10	0.7
Cc1nc(C)c(C(=O)NNS(=O)(=O)c2ccccc2)s1	i	25	4.0	0.9	-4.5	-2	0.67
CN(C(=O)COC(=O)CCCN1C(=O)c2cccc3cccc(c23)C1=O)C1CCS(=O)(=O)C1 (centres undefined)	i	-9	-111	-1.6	-5.2	5	0.65
Cc1cnc(NC(=O)C2CCC(C(C)(C)C)CC2)s1 (centres undefined)	i	/	0.7	0.7	-0.4	-3	0.69
CC(C)Oc1ccc(C(=O)NCCCNC(=O)c2ccccn2)cc1	i	2	-0.8	1.0	0.6	0	0.7

Some of these compounds in order of their number in Beta2AR agonist, high to low.
SMILES,ALR inh,UCH37 inh,LANA-H2B inh,Beta2AR agonist
O=C(NN1C(=O)NC2(CCCCC2)C1=O)c1ccc(-c2ccc([N+](=O)[O-])cc2)o1,5,4.3,-3.0,7
Cc1nc(C)c(C(=O)NNS(=O)(=O)c2ccccc2)s1,25,4.0,0.9,-2
O=S(=O)(c1ccc(=S)[nH]c1)N1CCCCC1,?,3.1,-2.5,-5

(list continues)
SMILES	FGF22 binding	ALR inh	UCH37 inh	LANA-H2B inh	HNF4A DNA FP	Beta2AR agonist	E coli growth
COc1cc(NC(=O)COc2ccc(Cl)cc2)ccc1NC(=O)C(C)C	i	-6	1.9	-3.9	2.1	-9	0.65
C1CCN(Cc2nnnn2CC2CCCO2)CC1 (centres undefined)	/	-4	-1.9	-4.6	4.3	1	0.69
CCCc1nnc2c(N(C)S(=O)(=O)c3ccc(C)cc3)nc3ccccc3n12	i	-4	-0.3	4.1	-2.0	-10	0.66
Cc1nnc(SCC(=O)N2CCOCC2)c2ccccc12	/	/	6.8	2.0	-2.2	0	0.71
CCN(CC)C(=S)SCC(=O)c1c(C)[nH]c2ccccc12	/	-9	0.6	-1.6	-0.7	-17	0.7
CCCCn1c(N)c(N(CCC(C)C)C(=O)CC2OC(=O)c3ccccc32)c(=O)[nH]c1=O (centres undefined)	i	-13	1.9	-2.8	-1.1	2	0.68
Fc1ccc(-c2ccnc3nc(N4CCN(c5ccccc5)CC4)nn23)cc1	/	19	-0.9	2.0	-1.4	-38	0.67
CN(C(=O)c1ccc(S(=O)(=O)NC2CCCC2)cc1)C1CCCCC1	/	0	1.8	-5.4	-1.7	3	0.7
CC(=O)OCCN1CCN(C(=O)CN2C(=O)NC(c3ccccc3)(c3ccccc3)C2=O)CC1	i	-17	0.9	-0.5	3.0	-4	0.61
Cc1cc(C)n(CC(=O)N2CCCC(C(=O)c3cccc(OC(C)C)c3)C2)n1 (centres undefined)	i	-8	2.6	-4.1	3.9	-11	0.75
CCSc1cc(C2C(C(=O)OC)=C(C)NC3=C2C(=O)CCC3)c(C)o1 (centres undefined)	/	-37	5.1	-0.4	0.4	-6	0.67
CCC(=NCCc1ccc(OC)c(OC)c1)C1=C(O)CC(C)(C)CC1=O	i	-4	2.5	2.6	-3.0	0	0.72
